CBX7 inh = CBX7 inhibition, primary AlphaScreen | O95931 | AlphaScreen His6-CBX7 / biotin-H3K27me3 peptide binding; hits give low values | normalised signal (fraction of DMSO) (no concentration beside the values) | 66,000 compounds, 1.1% hits | AID 1224903; in the data active = normalised signal below about 0.5;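 note: 100 nL library stock added to about 20 µL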
Target sequence (O95931 whole entry, looked up): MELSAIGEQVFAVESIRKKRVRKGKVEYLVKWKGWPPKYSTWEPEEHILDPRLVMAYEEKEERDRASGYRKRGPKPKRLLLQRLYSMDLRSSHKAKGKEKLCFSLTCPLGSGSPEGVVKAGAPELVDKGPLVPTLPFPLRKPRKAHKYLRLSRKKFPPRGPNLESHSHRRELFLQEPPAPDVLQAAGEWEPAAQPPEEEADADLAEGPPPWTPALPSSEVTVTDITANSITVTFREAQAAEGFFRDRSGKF
CBX7 inh z-score = recorded beside CBX7 inh, whose call it bears; z-score; measured here: z-score of CBX7 signal; some inactives read as strong as hits; reference of the scale not given here;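 same signal on another scale; lower means less binding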
* hit, by the source's call.

SMILES	CBX7 inh	CBX7 inh z-score
Cc1ccc(C(=O)N(Cc2nc(-c3ccc(Cl)cc3)no2)C(C)C)cc1	1	0.45
CCC(CC)C(=O)N1CC(=O)Nc2ccc(Br)cc2C1c1ccccc1 (configuration not stated)	0.99	-0.059
Cc1ccc(S(=O)(=O)N(C)c2ccc(Br)cc2C(=O)c2ccccc2)cc1	1	1.1
O=C(CSc1nnc(Cc2cc(=O)[nH]c(=O)[nH]2)n1-c1ccc(Cl)cc1)N1CCCCC1	1	0.092
Cc1ccc(Nc2nc(-c3ccc(S(=O)(=O)N4CCCCC4)cc3)cs2)cc1	0.98	-0.51
CCOc1ccc(-n2c(Cc3cc(=O)[nH]c(=O)[nH]3)nnc2SCC(=O)NC2CCCCC2)cc1	0.88	-1.9
CC(C)c1ccc(N(C)S(=O)(=O)c2ccc3[nH]cc(C(=O)N4CCOCC4)c(=O)c3c2)cc1	0.99	-0.09
CC(C)Cc1cc(C(=O)Nc2cnn(Cc3ccc(Cl)cc3Cl)c2)no1	1.2	1
COc1ccc(N2CCN(C(c3cccs3)c3sc4nc(C)nn4c3O)CC2)cc1 (configuration not stated)	0.93	-3.6
CCOC(=O)c1sc(NS(=O)(=O)c2ccc(C)cc2)nc1C	1.1	0.83
CC(C)(C)c1nnc(NCc2ccccc2)[nH]c1=O	1.4	0.85
O=C(CSc1nnc(Cc2ccccc2)o1)N1CCCc2ccccc21	0.98	-0.4
CCOCCCNC(=O)c1nc(-c2ccc(C)cc2)oc1C	1.1	3.5
COc1ccc(-n2ncc3c(NCCc4ccc(Cl)cc4)ncnc32)cc1	1	-0.011
O=C(Nc1ccc(Cl)cn1)c1cc2c(s1)-c1ccccc1OC2	1.4	10
Cc1ccc(OCC(=O)N(Cc2ccc(Cl)cc2)C2CCS(=O)(=O)C2)cc1C (configuration not stated)	0.92	-0.081
CC(C)(C)NC(=O)C(Cc1ccccc1)NS(=O)(=O)c1ccc2c(c1)CCC(=O)N2 (configuration not stated)	0.97	-0.51
CC1=C(C(=O)Nc2cccc(C)n2)C(c2cccnc2)C2=C(CC(C)(C)CC2=O)N1 (configuration not stated)	1	0.029
O=C(Nc1ccc2c(c1)OCO2)C1CCN(S(=O)(=O)c2cccs2)CC1	0.99	-0.084
COC(=O)c1cccnc1-n1c(=O)c2cccnc2n(CC(=O)Nc2ccccc2OC)c1=O	1	0.0025
CCCN1CCN(C(=O)CN2C(=O)CSc3ccc(S(=O)(=O)N4CCOCC4)cc32)CC1	0.94	-1.7
COc1ccc(C(C(=O)NC2CCCC2)N2CCc3ccccc32)cc1 (configuration not stated)	0.88	-2.9
CCC1=Nc2cc(C(=O)NCc3ccc(Cl)cc3)ccc2Sc2ccc(Cl)cc21	1	0.98
Cn1c(SCC(=O)NCCc2ccccc2)nnc1-c1c[nH]c2ccccc12	0.93	-1.2
Cc1ccc(NC(=O)Cn2cnc3sc(C(=O)NCC4CCCO4)c(C)c3c2=O)cc1Cl (configuration not stated)	1	0.32
(next part)
SMILES	CBX7 inh	CBX7 inh z-score
CCc1cccc(NC(=O)CCc2nc(-c3ccc(OC)cc3)no2)c1	0.81	-2.9
COc1ccc(-c2cc(C(=O)NCCc3ccc(OC)c(OC)c3)no2)cc1	0.9	-0.34
CCC(=O)N1CCc2cc(S(=O)(=O)NCCN3CCCCC3CC)ccc21 (configuration not stated)	1.1	0.97
COc1ccc(OC)c(NC(=O)CSc2nccn2-c2cccc(Cl)c2)c1	0.77	-4.2
COc1ccc(C(=O)c2oc3ccccc3c2NC(=O)COc2ccc(Br)cc2)cc1	1	0.51
O=c1c2nnn(Cc3ccc(F)cc3)c2ncn1Cc1ccc(Cl)cc1	0.97	-0.62
CN1C2CCC1CC(N(CCc1c[nH]c3ccccc13)C(=O)c1ccccc1)C2 (configuration not stated)	1	0.26
Cc1cccc(Nc2nnc(C(C)(C)C)c(=O)[nH]2)c1C	1.1	0.88
Cc1ccccc1-c1nc(CS(=O)(=O)CC(=O)NCCCOC(C)C)c(C)o1	1.1	1.4
Cc1ccccc1N1C(=O)c2ccccc2C1Nc1ccccc1 (configuration not stated)	0.98	-0.53
COc1ccc(N2CCN(C(c3ccccc3)c3sc4nc(C)nn4c3O)CC2)cc1 (configuration not stated)	0.95	-2.5
CCCCc1ccc(N2CC(C(=O)Nc3nccs3)CC2=O)cc1 (configuration not stated)	0.95	-1.3
Cc1cccc(-n2ccnc2SCC(=O)Nc2ccc3c(c2)OCCO3)c1	0.81	-0.18
CC(Nc1nc(N2CCN(S(C)(=O)=O)CC2)nc2ccccc12)c1ccccc1 (configuration not stated)	1	1.6
COc1ccc(NC(=O)CCc2c(C)nc3cc(-c4ccccc4)nn3c2C)cc1	0.99	-0.18
CCOC(=O)c1c(C)n(-c2ccc(N(CC)CC)cc2)c2c1cc(O)c1ccccc12	0.91	-1.6
CC1(C)CC(=O)c2cc(C(N)=O)c(=O)n(-c3ccccc3)c2C1	1	0.24
CCOC(=O)c1c(NC(=O)COc2cc(C)c(Cl)c(C)c2)sc(C)c1C	1.1	1
COc1ccc(OC)c(NC(=S)NC(=O)c2ccnn2C)c1	1	0.25
CC1(C)CC(=O)C2=C(C1)N(c1cccc(F)c1)C(=O)CC2c1ccsc1 (configuration not stated)	1	0.36
Cc1ccn2c(NC3CCCC3)c(-c3ccsc3)nc2c1	1.1	0.094
CC1CCN(S(=O)(=O)c2ccc3c(c2)N(CC(=O)NC2CC2)C(=O)CO3)CC1	1.1	0.8
O=C(NCCCN1CCOCC1)c1cc2c(s1)-c1ccccc1OC2	1.1	1.8
O=C(Cn1c(SCc2ccc(F)cc2)nc2ccncc21)NCCC1=CCCCC1	1	-0.13
COc1cccc(N2C(=O)N(c3ccccc3)C3CS(=O)(=O)CC32)c1 (configuration not stated)	0.88	-2.8
Additional records follow:
SMILES	CBX7 inh	CBX7 inh z-score
O=C(c1csc2c1CCCCC2)N1CCN(c2cccc(C(F)(F)F)c2)CC1	1	0.8
CCOCCCNC(=O)c1cc(=O)n(Cc2cccc(C)c2)c2ccccc12	1	0.21
CCc1ccc(NC(=O)Cn2cnc3sc(C)c(S(=O)(=O)N4CCC(C)CC4)c3c2=O)cc1	1.1	0.72
O=C(CSc1nccn1-c1ccccc1)Nc1cccc(C(F)(F)F)c1	0.62	-8.2
CC(C)(C)OC(=O)N1CCC(c2cc(=O)n3[nH]cc(C(=O)Nc4ccc(F)c(Cl)c4)c3n2)CC1	0.99	-0.19
COc1cccc(-n2ccnc2SCC(=O)Nc2c(C)cc(C)cc2C)c1	0.9	-1.6
Cc1ccc(CCNC(=O)CCc2cn(C)c3ccccc23)cc1	1	0.61
Cc1ccc(-c2nc(CS(=O)(=O)CC(=O)Nc3cc(C(F)(F)F)ccc3Cl)c(C)o2)cc1	0.99	-0.031
Cc1ccccc1Cc1c(C)nc2c(C(=O)N3CCN(c4ccccn4)CC3)cnn2c1C	1	1.1
CCOC(=O)c1[nH]c2c(c1C)C(=O)CC(c1ccc(OC)c(OC)c1)C2 (configuration not stated)	1	0.37
CC1CCc2c(C(=O)NCCCN3CCCC3=O)csc2C1 (configuration not stated)	1.1	3.7
O=C(O)CCn1c(C2CCCCC2)nc2ccccc21	1	1
COc1ccc(C2=NOC(C(=O)N3CCN(c4ccccc4)CC3)C2)cc1OC (configuration not stated)	1	1
Cc1ccc(NC(=O)c2csc3c2CCCCC3)cc1Cl	1.1	2.2
CCN1CCCC1CNC(=O)c1cn(C2CCCCC2)c(=O)c2c1c1ccccc1n2C (configuration not stated)	0.9	-2.5
CC(=O)Nc1cccc(NC(=O)c2ccc(N3C(=O)c4ccccc4C3=O)cc2)c1	1.1	0.96
Cc1cc2ccccc2c(=O)n1CC(=O)Nc1ccc2c(c1)OCO2	0.94	-1.6
O=C1CC(NCCc2ccccc2F)C(=O)N1c1ccc(Br)cc1 (configuration not stated)	0.93	-0.42
Cc1cccc(C(=O)Nc2c(-c3cccs3)nc3cc(C)ccn23)c1	1.2	1.6
CCOC(=O)C1CCCN(C(=O)CN2C(=O)COc3ccc(S(=O)(=O)N4CCCC4)cc32)C1 (configuration not stated)	1	0.56
CCC(=O)NCCc1cc2cc(C)c(C)cc2[nH]c1=O	1	0.93
Cc1cccc(C(=O)Nc2sc3c(c2C(=O)N2CCCC2)CCCC3)c1	1	0.63
COc1cc(NC(=O)c2cc(C)on2)cc(OC)c1	0.99	-0.2
CCCC(=O)NCc1cc(-c2nn(C)c(=O)c3ccccc23)ccc1OC	1.1	1.3
Cc1ccc(-c2nn(C)c(=O)c3ccccc23)cc1S(=O)(=O)NC(C)C	1.1	0.36

Pulled one by one from the list above, 4 records:
SMILES	CBX7 inh	CBX7 inh z-score
Cc1ccc(NC(=O)c2csc3c2CCCCC3)cc1Cl	1.1	2.2
Cc1ccc(-c2nc(CS(=O)(=O)CC(=O)Nc3cc(C(F)(F)F)ccc3Cl)c(C)o2)cc1	0.99	-0.031
CCc1ccc(NC(=O)Cn2cnc3sc(C)c(S(=O)(=O)N4CCC(C)CC4)c3c2=O)cc1	1.1	0.72
CC(=O)Nc1cccc(NC(=O)c2ccc(N3C(=O)c4ccccc4C3=O)cc2)c1	1.1	0.96

Ordered by count of non-hydrogen atoms (falling): some entries from above.
SMILES	CBX7 inh	CBX7 inh z-score
CC(C)(C)OC(=O)N1CCC(c2cc(=O)n3[nH]cc(C(=O)Nc4ccc(F)c(Cl)c4)c3n2)CC1	0.99	-0.19
CCOC(=O)C1CCCN(C(=O)CN2C(=O)COc3ccc(S(=O)(=O)N4CCCC4)cc32)C1 (configuration not stated)	1	0.56
CCN1CCCC1CNC(=O)c1cn(C2CCCCC2)c(=O)c2c1c1ccccc1n2C (configuration not stated)	0.9	-2.5
CC(=O)Nc1cccc(NC(=O)c2ccc(N3C(=O)c4ccccc4C3=O)cc2)c1	1.1	0.96
COc1ccc(C2=NOC(C(=O)N3CCN(c4ccccc4)CC3)C2)cc1OC (configuration not stated)	1	1
CCOCCCNC(=O)c1cc(=O)n(Cc2cccc(C)c2)c2ccccc12	1	0.21
COc1cccc(-n2ccnc2SCC(=O)Nc2c(C)cc(C)cc2C)c1	0.9	-1.6
Cc1ccc(-c2nn(C)c(=O)c3ccccc23)cc1S(=O)(=O)NC(C)C	1.1	0.36
Cc1cccc(C(=O)Nc2c(-c3cccs3)nc3cc(C)ccn23)c1	1.2	1.6
Cc1ccc(CCNC(=O)CCc2cn(C)c3ccccc23)cc1	1	0.61
CC1CCc2c(C(=O)NCCCN3CCCC3=O)csc2C1 (configuration not stated)	1.1	3.7
Cc1ccc(NC(=O)c2csc3c2CCCCC3)cc1Cl	1.1	2.2
CCC(=O)NCCc1cc2cc(C)c(C)cc2[nH]c1=O	1	0.93
COc1cc(NC(=O)c2cc(C)on2)cc(OC)c1	0.99	-0.2

(listing goes on)
SMILES	CBX7 inh	CBX7 inh z-score
Cc1cccc(-c2noc(CCc3ccccc3)n2)c1	1.1	0.51
Cc1nc2c(C(=O)N3CCN(c4ccccn4)CC3)cnn2c(C)c1Cc1ccccc1Cl	0.94	-1.9
Cc1noc(C)c1S(=O)(=O)NCc1ccccn1	1	1.2
Cc1cccc(OCC(=O)N(Cc2nc(-c3cccc(C)c3)no2)C(C)C)c1	0.82	-1.8
CC12CC3(C)CC(O)(C1)CC(O)(C2)C3	0.84	-1.9
COc1ccc(-n2ccnc2SCC(=O)Nc2ccc3c(c2)OCCO3)cc1	0.7	-0.39
CCOc1cc2c(cc1OCC)C(c1ccc3c(c1)OCO3)NCC2 (configuration not stated)	1	-0.0047
COc1ccc(C)cc1NC(=O)c1cnc(N2CCN(c3ncccn3)CC2)c2ccccc12	1.1	1.4
Cc1cc(N2CCC(C(=O)NCc3ccc(F)cc3)CC2)n2nc(C)c(-c3ccc(Cl)cc3)c2n1	1.1	2.4
CCc1cccc(NC(=O)C2CCCN(c3nnc(-n4cccc4)s3)C2)c1 (configuration not stated)	0.93	-1.5
CCN(CCNC(=O)c1cc(-c2ccncc2)nc2ccccc12)c1ccccc1	0.79	-8.1
CC1=C(C(=O)Nc2cccc(C)n2)C(c2cccc(Oc3ccccc3)c2)C2=C(CCCC2=O)N1 (configuration not stated)	1.1	1.4
Cc1ccc(NC(=O)CCc2c(C)nc3c(-c4ccccc4)c(C)nn3c2C)cc1C	1.1	1.5
Cc1ccc(CNC(=O)Nc2ccc3c(c2)N(C)C(=O)CS3)cc1	0.97	-0.88
COc1ccc(C(=O)N2CC(=O)Nc3ccc(C)cc3C2c2ccccc2)cc1 (configuration not stated)	0.98	-0.45
CCCC1=Nc2cc(C(=O)N3CCCC3)ccc2Sc2ccc(C)cc21	0.89	-5
O=C(Nc1ccccc1C(=O)Nc1ccccc1)c1cccc(S(=O)(=O)N2CCCCC2)c1	0.76	-2.5
CCOc1cccc(C(=O)Nc2cc(-c3nc4ccc(C)cc4o3)ccc2Cl)c1	1.1	1.2
Cc1ccccc1CN1CCN(CC(=O)NCc2cccs2)C1=O	0.95	-1
COc1ccccc1CNC(=O)c1cc(-c2ccc(Cl)s2)nc2ccccc12	1	1.3
CCCCSCCCNC(=O)c1nc(-c2ccc(C)cc2)oc1C	0.81	-0.76
CCCCN(CC)C(=O)c1c[nH]c2ccc(S(=O)(=O)Nc3cccc(OC)c3)cc2c1=O	1.1	1.1
CC1CCCN(CCCNC(=O)CCn2nc(-c3ccc(Cl)cc3)ccc2=O)C1 (configuration not stated)	0.84	-1.9
Cc1c(C(=O)Nc2ccc(F)cc2)sc2ncn(CC(=O)N3CCCCC3)c(=O)c12	0.98	-0.17
COc1cccc(-c2cc(C(=O)N3CCN(c4ccc(F)cc4)CC3)no2)c1	0.97	-0.69
Cc1ccc(S(=O)(=O)C2(C(=O)N3CCCC(C)C3)CC2)cc1 (configuration not stated)	1	0.75
COc1ccc(C)cc1NC(=O)c1c(-c2ccccc2Cl)noc1C	0.95	-0.76
CCCCn1c(C2CC(=O)N(c3ccccc3)C2)nc2ccccc21 (configuration not stated)	1.2	1.6
COc1ccc2c(c1OC)C(=O)N(c1nc(-c3ccc(C)cc3)cs1)C2=O	1	0.019

The list is partial. The share of hits here may be higher or lower than overall.
